From PubChem BioAssay
StopGo reporter – FMDV 2A StopGo reporter, luciferase signal; human cells with a luciferase reporter of 2A StopGo recoding; control for the full effect not named in the record; 1.2% of 410,000 active; Potency, µM (titrated, usually from 57.9 µM), for inactives: top-dose signal change, negative = less light; active = well fitted falling curve with a large enough effect; inconclusive = small, poorly fitted or top-dose-only effect; inactive = no such curve, though single readings can be large or run the other way; tested in HEK293T cells; note: % is set by controls: 0 for no effect and ±100 for the full control effect; nearly all actives have a fitted effect of over 45% in size; luciferase light after 4 h
Cruzain inh noDet – blocks cruzain activity in detergent-free assay | purified cruzain, Z-FR-AMC fluorescence, no detergent | Potency, µM, without a hit: max response, negative = inhibition, hits mostly inhibitors | 2.3% of 200,000 active;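 note: plate controls were enzyme without inhibitor for no effect and buffer without enzyme for full effect; nearly all actives have a fitted effect of over 40% in size; top concentration of the series not given in the record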
Target sequence (P25779 123-467 limits assumed): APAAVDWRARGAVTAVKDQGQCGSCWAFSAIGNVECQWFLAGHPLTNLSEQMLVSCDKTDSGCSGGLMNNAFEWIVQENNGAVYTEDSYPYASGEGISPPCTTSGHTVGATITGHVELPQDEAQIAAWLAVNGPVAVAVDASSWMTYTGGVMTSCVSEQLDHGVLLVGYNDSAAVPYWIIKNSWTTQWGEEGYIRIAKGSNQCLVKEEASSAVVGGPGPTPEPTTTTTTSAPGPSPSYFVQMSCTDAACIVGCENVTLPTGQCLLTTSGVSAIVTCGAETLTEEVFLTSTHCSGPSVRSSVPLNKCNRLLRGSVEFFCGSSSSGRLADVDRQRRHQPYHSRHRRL
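Purified cruzain at 1.5 nM, pre-incubated 15 min with compound at room temperature in 100 mM sodium acetate pH 5.5, 5 mM DTT, 0.00005% Triton X-100. Reaction started with 2 uM Z-FR-AMC; AMC fluorescence increase over 60 s gives rate.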
SARS PLP yeast – blocks SARS-CoV papain-like protease in a yeast assay; S. cerevisiae expressing SARS-CoV PLpro, growth rescue; control for the full effect not named in the record; Potency, µM (highest dose often 32.9 µM), without a hit: top-dose activity, positive = growth rescue; 0.19% of 330,000 active; active means well fitted rising curve with a large enough effect; inconclusive means small, poorly fitted or top-dose-only effect; inactive means no such curve, though single readings can be large or run the other way; note: 0% is about no effect; nearly all actives have a fitted effect of over 55% in size; growth read by luminescence after 48 h
Lassa entry inh – Lassa virus entry inhibition; Lassa virus pseudotype entry inhibition, cell reporter; control for the full effect not named in the record; Potency, µM (doses to about 37.9 µM), for inactives: top-dose activity change, negative = inhibition, usual class: inhibitors; 1.2% of 300,000 active; AID 540256; active means well fitted inhibition curve with a large enough effect; inconclusive means small, poorly fitted or top-dose-only effect, or effect the other way; inactive means flat fitted curve, though single readings scatter; tested in HEK293 cells; note: % is set by controls: 0 for no effect and ±100 for the full control effect; nearly all actives have a fitted effect of over 50% in size; luciferase read-out
RE007 growth inh – less growth of the S. pombe RE007 Vpr strain. S. pombe RE007 Vpr strain, BacTiter-Glo ATP luminescence, 24 h; control for the full effect not named in the record. Potency, µM (highest dose often 92.2 µM), without a hit: at the top dose activity change, negative = less growth. 0.21% of 360,000 active; active = well fitted falling curve with a large enough effect; inconclusive = small, poorly fitted or top-dose-only effect; inactive = no such curve, though single readings can be large or run the other way;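 note: % is set by controls: 0 for no effect and ±100 for the full control effect; nearly all actives have a fitted effect of over 50% in size; the assay follows cell death caused by Vpr and the record does not say whether a fall means rescue or toxicity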
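Fission yeast RE007 carrying one integrated HIV-1 vpr copy, seeded at OD 0.01 in PMG+AL medium with 23 nL pinned compound. Grown 24 h at 30 degrees; viability read by BacTiter-Glo luminescence after 5 min.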
MARV entry inh – Marburg virus entry inhibition. Marburg virus pseudotyped entry inhibition, cell reporter; control for the full effect not named in the record; about a third of the inactives were read at about 46 µM. Potency, µM (titrated, usually from 37.8 µM), for inactives: top-dose activity change, negative = inhibition, most hits filed as inhibitors. 1.8% of 300,000 active. AID 540276; active = well fitted inhibition curve with a large enough effect; inconclusive = small, poorly fitted or top-dose-only effect, or effect the other way; inactive = flat fitted curve, though single readings scatter; tested in HEK293 cells; about a fifth of its hits are not listed in these tables; note: % is set by controls: 0 for no effect and ±100 for the full control effect; luciferase read-out
NS1 inh – influenza NS1 inhibition. AID 2326. 0.4% of 270,000 active. S. cerevisiae slowed by influenza A NS1, growth recovery by OD600. Potency, µM (highest dose often 46.1 µM), without a hit: at the top dose activity, positive = more growth; active means well fitted rising curve with a large enough effect; inconclusive means small, poorly fitted or top-dose-only effect; inactive means no such curve, though single readings can be large or run the other way; note: nearly all actives have a fitted effect of over 50% in size
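In this qHTS, NS1 from influenza A is expressed in budding yeast, where it slows growth. Cells are switched from glucose to 2% galactose medium (pH 6.0, -URA), treated with compound, and growth recovery is read at OD600.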
Cruzain inh Det – inhibitors of Trypanosoma cruzi cruzain with detergent; Potency, µM, for the others: max response, negative = inhibition, actives largely listed as inhibitors; P25779; purified cruzain, Z-FR-AMC fluorescence, 0.01% Triton; AID 1478; 0.43% of 200,000 active;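 note: plate controls were neutral wells for no effect and buffer without enzyme for full effect; nearly all actives have a fitted effect of over 40% in size; top concentration of the series not given in the record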
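Sodium acetate buffer (100 mM, pH 5.5) containing 5 mM DTT and 0.01% Triton X-100 hosted 1.5 nM cruzain and test compound for 15 min at room temperature. Cleavage of 2 uM Z-FR-AMC was then tracked by fluorescence.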
* marks the source's active call; other numbers are inactive results; ? = inconclusive; · = not tested or not shown; & = joins results of further samples; [ ] = remark or other dose. Unless noted, calls come from the whole dose curve; as a rule, active = well fitted curve in the direction sought with a large enough effect; inconclusive = small, poorly fitted or top-dose-only effect, or another doubt; inactive = no such curve, though single readings can be large; an effect the other way counts as inactive or inconclusive. Potency is the fitted concentration of half-maximal effect.

SMILES | StopGo reporter | Cruzain inh noDet | SARS PLP yeast | Lassa entry inh | RE007 growth inh | MARV entry inh | NS1 inh | Cruzain inh Det
Cc1ccc(S(=O)(=O)Nc2cc3c(cc2NCc2ccccc2)n(C)c(=O)n3C)c(C)c1 | 8.1% | 1.4% | · | -9.2%[46.1 µM] | · | 16.9%[46.1 µM] | · | -3.0%
N#CCn1cc(/C=N/NC(=O)c2cc3c(ccc4ccccc43)o2)c2ccccc21 | -19.6% | · | 0.7% | · | 16.1% | · | 12.3% | ·
CCOC1OC(=O)C(Cl)=C1Nc1ccccc1C (stereo not drawn) | -9.2% | 25.5% | 1.0% | 13.8% | -0.6% | ? | 2.2% | 3.3%
CCCN1C2=NS(=O)(=O)CCN2c2ccccc21 | -9.5% | -7.3% | -1.6% | 20.0% | 8.4% | ? | -1.8% | -2.0%
CCN=C1NN=C(c2ccc(C)cc2)CS1 | · | ? | -2.9% | ? | -20.2% | ? | -22.3% | -3.1%
COc1cccc(-c2nn(-c3ccccc3)cc2CN(C)C(C)c2ccon2)c1 (stereo not drawn) | 0.0% | · | -2.2% | -11.3% | -10.0% | -10.1%[46.1 µM] | 1.4% | ·
CSc1ccc(S(=O)(=O)NCC(=O)OC(C)C(=O)NCc2ccccc2)cc1[N+](=O)[O-] (stereo not drawn) | 17.0% | · | -0.8% | 9.5% | 11.9% | ? | · | ·
O=C(CCN1CCOCC1)Nc1ccc2c(c1)CCC2 | 11.5% | 5.3% | -3.2% | 6.5% | -7.2% | 0.8% | -11.8% | 1.1%
Cn1c(-n2c(CCN3C(=O)c4ccccc4C3=O)nc3ccccc3c2=O)nc2ccccc21 | · | ? | 1.7% | · | · | 1.0% | ? | 4.5%
COc1ccc(N2C(=O)C(Cl)=C(N3CCCC3)C2=O)cc1 | 7.4% | -6.4% | 5.7% | 23.5% | 8.3% | ? | -5.4% | -1.3%
Cc1ccccc1NC(=O)c1cnc2ccccn2c1=O | -11.6% | -9.9% | -6.3% | ? | 13.7% | ? | -54.2% | -5.9%
Cc1ccc(N(C(=O)CNC(=O)c2ccco2)C(C(=O)NC2CCCC2)c2ccncc2)cc1F (stereo not drawn) | -13.3% | · | -6.5% | 0.4% | 9.5% | 4.3%[46.1 µM] | -11.1% | ·
O=C1CC(c2cccnc2)c2cc3c(cc2N1)OCO3 (stereo not drawn) | -5.1% | -0.9% | 2.4% | -6.1% | -2.6% | -15.4% | 7.4% | 0.3%
COc1cc(S(=O)(=O)N(C)C2CCCCC2)c(C)cc1C | 0.0% | · | -1.6% | · | -1.7% | · | -31.5% | ·
CCC1(Cc2ccccc2)NC(=O)c2ccccc2O1 (stereo not drawn) | -16.8% | · | 1.0% | 8.8%[46.1 µM] | 3.4% | -23.1%[46.1 µM] | · | ·
Cn1ncc(Br)c1C(=O)N1CCOCC1 | -18.7% | 0.6% | 3.4% | -1.8% | -19.5% | ? | -1.2% | 1.2%
Cc1ccc(S(=O)(=O)Nc2c(C)n(C)n(-c3ccccc3)c2=O)cc1C(=O)NCc1ccccn1 | 5.8% | -11.8% | -0.7% | -0.4% | 0.0% | 0.3%&-8.5% | -8.7% | 2.5%
CCCc1nc(SCC(=O)Nc2cc(Cl)ccc2OC)c2c(=O)n(C)c(=O)n(C)c2n1 | · | 9.1% | 3.5% | · | · | · | -36.6% | -2.0%
CCOCC(=O)Nc1cccc(C(=O)OCC)c1 | -9.6% | 3.2% | -2.6% | -17.9% | 5.1% | -2.0%[46.1 µM] | -12.6% | -3.6%
Cc1ccc(C(=O)Nc2cccc(S(=O)(=O)N(C)c3ccccc3)c2)o1 | -24.3% | · | -8.0% | ? | -7.6% | 12.9% | · | ·
Cc1cccc(C(=O)Nc2cccc(OCc3cc(=O)n4cc(C)sc4n3)c2)c1 | -21.3% | ? | · | 8.1%[46.1 µM] | · | 0.7%[46.1 µM] | · | -0.9%
CCOC(=O)N1CCC(NS(=O)(=O)c2cc(Br)cnc2N)CC1 | 28.5% | 13.0% | 1.9% | -10.1% | ? | -0.1% | -4.9% | 0.7%
Cc1ccc(NCCC(=O)c2ccccc2)cc1Cl | 82.4%[activator] | · | -6.6% | 25.6% | -17.9% | ? | -0.9% | ·
CSc1ncccc1C(=O)OCC(=O)c1ccccc1 | 4.5% | · | -0.9% | 9.4% | -5.2% | 2.2%[46.1 µM] | -1.0% | ·
Cc1ccc(NC(=O)CN(C)S(=O)(=O)c2cccc3nsnc23)cc1 | -17.2% | 1.9% | -5.4% | 3.0% | -4.6% | -21.7%[46.1 µM] | 10.3% | -0.3%
O=C(NCCc1ccccn1)C1CCN(S(=O)(=O)c2ccc3ccccc3c2)CC1 | -14.8% | · | 0.9% | -1.2%[46.1 µM] | -9.3% | 5.3%[46.1 µM] | -10.2% | ·
O=C(Nc1ccc(F)cc1)c1ccc2c(c1)NC(=O)c1ccccc1S2 | ? | -12.9% | · | · | · | -35.3%[46.1 µM] | · | 0.0%
CCOc1ccc(C(=O)NCC(c2ccc3c(c2)OCO3)N2CCN(c3ccc(F)cc3)CC2)cc1 (stereo not drawn) | -16.2% | -4.0% | · | ? | · | · | · | 0.2%
O=C(Cc1ccccc1)N1CCC(c2nc(-c3ccc(F)cc3)no2)CC1 | ? | 22.9% | 6.5% | 0.9% | 12.4% | ? | -9.6% | -1.0%
Cc1cccc(N=C2NC(=O)/C(=C/c3cccn3C)S2)c1C | 4.1% | · | -2.4% | ? | -11.2% | 8.91µM* | -50.0% | ·
CC1(C)CC(=O)C=C(Nc2ccc(Br)cc2F)C1 | 12.5% | · | -1.9% | 13.0%[46.1 µM] | 0.8% | -0.8%[46.1 µM] | -4.1% | ·
CCOC(=O)N1CCN(C(=O)c2c(-c3ccccc3)noc2C)CC1 | -9.0% | 4.6% | 2.5% | · | -5.6% | · | 2.9% | 1.4%
COc1ccc(C)cc1S(=O)(=O)N1CCC(C)CC1 | 32.5%[activator] | 7.2% | -1.7% | 12.5% | 10.5% | 8.6% | 2.3% | 1.9%
CC(O)(CS(=O)(=O)c1ccccc1)C(=O)Nc1cccc(C(F)(F)F)c1 (stereo not drawn) | -3.1% | 2.6% | -1.9% | 37.5%[14.3 µM] | -10.2% | -6.1% | 5.9% | -1.7%
CC(C)(C#N)NC(=O)c1ccco1 | 10.6% | 1.9% | -1.0% | 6.7% | 4.7% | 28.8% | -0.1% | -1.8%
CCOc1c(Br)cc(CNc2ccc(N3CCOCC3)cc2)cc1OC | -15.3% | · | -1.8% | · | -0.9% | · | -92.6% | ·
Cc1cc(C(=O)Cn2nc(C(=O)O)c3ccccc3c2=O)c(C)n1-c1cccc(C(F)(F)F)c1 | -15.4% | · | -0.1% | 5.3% | -10.0% | -3.2%[46.1 µM] | -12.0% | ·
CCc1ccc(C(=O)c2cn(CC(=O)Nc3ccc(OC)cc3OC)c3ccc(CC)cc3c2=O)cc1 | -8.2% | -26.8% | · | ? | · | ? | · | -5.6%
Cc1ccc(NC(=O)C(C)SCc2nc3sc4c(c3c(=O)[nH]2)CCCC4)nc1 (stereo not drawn) | -0.3% | · | 1.4% | · | 2.5% | · | 9.6% | ·
O=C(Nn1cc(C(=O)Nc2ccc(F)cc2F)c2ccccc2c1=O)c1cnccn1 | -21.6% | · | -7.1% | -2.3% | -5.8% | -15.0% | · | ·
CSc1nc2sc(-c3ccccc3)cc2c(=O)n1N | -5.8% | 0.4% | 24.5% | ? | ? | -14.9% | -0.5% | -3.5%
Cc1ccc(S(=O)(=O)NCC(=O)N(c2ccccc2)C(C(=O)NCc2ccccc2)c2ccco2)cc1 (stereo not drawn) | 0.0% | -2.9% | 4.9% | ? | 15.3% | 20µM* | -9.2% | -2.4%
COc1ccc(Cl)cc1NC(=O)COC(=O)CCc1cc(OC)c(OC)c(OC)c1 | -10.2% | · | -18.0% | 4.2% | 9.0% | 26.5%[46.1 µM] | -44.0% | ·
O=C(Nc1nnc(-c2ccc(Cl)cc2)o1)c1cccc(N2C(=O)CCC2=O)c1 | 1.6% | 6.7% | 0.3% | -13.4% | -10.2% | -1.0% | -3.6% | -3.5%
O=C(c1cccc(-c2ccc(O)cc2)c1)N1CCOCC1 | 28.9% | -4.7% | -8.2% | -1.7% | -9.2% | -8.3%[46.1 µM] | 6.2% | 5.6%
O=[N+]([O-])c1cc(C(F)(F)F)cc([N+](=O)[O-])c1N1CCCNCC1 | -12.1% | · | 0.6% | 16.4%[46.1 µM] | 0.8% | 6.3%[46.1 µM] | ? | ·
CCOc1ccc(CN(C)CC(O)COC(c2ccc(OC)cc2)c2ccc(OC)cc2)cc1 (stereo not drawn) | -7.1% | · | 0.1% | ? | 5.8% | ? | 8.6% | ·
Cc1cc(C)cc(N=C2NC(=O)/C(=C/c3cccs3)S2)c1 | -12.4% | -16.3% | -3.0% | -4.2% | 3.1% | 4.1% | 14.0% | -5.9%
CC12CCC(=O)N1C(C(=O)Nc1nnc(SCc3ccccc3)s1)CS2 (stereo not drawn) | 10.8% | · | 2.9% | 6.4% | 2.2% | ? | · | ·
CCOc1ccc(Cc2nc(-c3nonc3N)no2)cc1OCC | -28.9% | 2.6% | -1.6% | -7.3% | -12.8% | 27.4% | 0.4% | -2.3%
COCCn1c(SCC(=O)Nc2nnc(C)s2)nnc1-c1ccco1 | -9.9% | · | 0.7% | 12.8% | -10.6% | -21.7%[46.1 µM] | 1.8% | ·

Among those listed so far, these have a nitro group on carbon:
SMILES | StopGo reporter | Cruzain inh noDet | SARS PLP yeast | Lassa entry inh | RE007 growth inh | MARV entry inh | NS1 inh | Cruzain inh Det
CSc1ccc(S(=O)(=O)NCC(=O)OC(C)C(=O)NCc2ccccc2)cc1[N+](=O)[O-] (stereo not drawn) | 17.0% | · | -0.8% | 9.5% | 11.9% | ? | · | ·
O=[N+]([O-])c1cc(C(F)(F)F)cc([N+](=O)[O-])c1N1CCCNCC1 | -12.1% | · | 0.6% | 16.4%[46.1 µM] | 0.8% | 6.3%[46.1 µM] | ? | ·
